Resorufin fluor: compounds fluorescent in resorufin spectral region; Compound fluorescence, resorufin region 547/598 nm, buffer; hits give high values; 59,000 tested, 0.04% active; max dye-equivalent concentration, M; active = above 10 nM dye equivalent; inconclusive = 1 to 10 nM; inactive = 1 nM or less; a few of its hits are not listed in these tables; also: highest value over a series up to 38 µM
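Dye-equivalent concentration values derive from comparing each well's 547/598 nm fluorescence against resorufin standards included on every plate. Incubation was 15 min at room temperature in 100 mM Tris, pH 8.0.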
TSHR ag: activates the human thyroid stimulating hormone receptor. P16473. HEK293-CNG-TSHR cells (CNG channel as cAMP sensor), membrane potential dye, cAMP. Potency, µM (top dose mostly 57.1 µM), inactives show at the top dose activation, hits mostly activators. 73,000 tested, 0.48% active. AID 926; active = well fitted activation curve of enough size with the parental cells flat; inconclusive = any curve in the parental cells; inactive = parental cells flat and receptor cells flat or falling; also: potency is read from the fitted curve at half-maximal effect; % of control where 0% means no effect; weak receptor curves with flat parental cells got no call and are not listed
Target sequence (P16473 whole entry, looked up): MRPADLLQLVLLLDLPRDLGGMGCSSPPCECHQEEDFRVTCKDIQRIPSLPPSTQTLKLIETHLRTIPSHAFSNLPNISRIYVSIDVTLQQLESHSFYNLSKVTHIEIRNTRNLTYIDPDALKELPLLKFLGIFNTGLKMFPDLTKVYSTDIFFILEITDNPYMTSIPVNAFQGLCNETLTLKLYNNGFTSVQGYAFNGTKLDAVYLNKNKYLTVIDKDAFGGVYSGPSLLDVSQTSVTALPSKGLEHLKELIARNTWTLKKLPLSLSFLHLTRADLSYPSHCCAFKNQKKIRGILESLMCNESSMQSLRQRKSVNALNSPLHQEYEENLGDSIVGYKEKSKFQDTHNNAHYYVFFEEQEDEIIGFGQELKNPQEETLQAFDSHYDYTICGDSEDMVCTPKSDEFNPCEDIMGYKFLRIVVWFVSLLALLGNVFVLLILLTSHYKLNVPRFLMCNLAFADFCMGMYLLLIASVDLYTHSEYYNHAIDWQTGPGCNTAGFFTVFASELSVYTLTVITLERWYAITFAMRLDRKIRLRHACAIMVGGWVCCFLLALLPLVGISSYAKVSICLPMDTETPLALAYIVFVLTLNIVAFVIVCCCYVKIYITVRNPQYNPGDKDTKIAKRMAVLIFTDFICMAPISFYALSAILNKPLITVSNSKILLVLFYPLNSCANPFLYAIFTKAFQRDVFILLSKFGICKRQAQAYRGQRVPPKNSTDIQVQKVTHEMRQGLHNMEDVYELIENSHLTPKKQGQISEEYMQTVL
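HEK 293 cells stably expressing TSHR and a cAMP-gated CNG channel; parental CNG-only cells as counterscreen. Cells preloaded 60 min with membrane potential dye plus 100 uM RO 20-1724, then compound 30 min; fluorescence read at 590 nm.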
AID923: qHTS Assay for Allosteric/Competitive Inhibitors of Caspase-1: Spectroscopic Profiling in AFC Spectral Region; compound fluorescence, AFC spectral region (405/520 nm); almost no hit is shown here; Potency, µM (doses to about 57.5 µM), without a hit: at the top dose fluorescence increase, actives largely listed as activators; 75,000 tested, 1.1% active; active = well fitted activation curve with a large enough effect; inconclusive = small, poorly fitted or top-dose-only effect;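 also: potency is read from the fitted curve at half-maximal effect; 0% is about no effect; scaled to a free AFC standard on each plate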
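Baseline compound fluorescence (AFC region, 405 nm ex/520 nm em) taken from the intercept of kinetic reads with 50 nM caspase-1 and 5 uM Ac-WEHD-AFC; normalized to an on-plate AFC standard curve; compounds titrated up to 57 uM.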
A647 autofl: compound autofluorescence in A647 spectral region; Compound fluorescence, A647 channel (570/671 nm), Tris buffer; 59,000 tested, under 10 active; max dye-equivalent concentration, M; AID 592; active means above 1 µM dye equivalent; inconclusive means 0.1 to 1 µM; inactive means 0.1 µM or less;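 also: values scaled relative to a standard on each plate; highest value over a series up to 38 µM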
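Fluorescence read (570 nm ex, 671 nm em) after 15 min RT incubation of compounds in 100 mM Tris buffer, pH 8.0; values expressed as dye-equivalent concentration against a six-point A647 standard series on each plate.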
A488 fluor: A488 region autofluorescence | max dye equivalency, M | compound autofluorescence, A488 spectral region, dye equivalency; hits give high values | 59,000 tested, 0.1% active; active = above 10 nM dye equivalent; inconclusive = 1 to 10 nM; inactive = 1 nM or less; about half of its hits are not listed in these tables;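 also: highest value over a series up to 38 µM; compound alone in buffer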
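Readout is A488 dye-equivalent concentration, calibrated by a per-plate six-point Alexa 488 series. Compounds in 100 mM Tris buffer pH 8.0 were incubated 15 min at room temperature. Plates were imaged using 480 nm excitation/540 nm emission filters.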
Starred values were filed as active, the others as inactive; i = inactive; ? = inconclusive; / = not tested or not shown; [ ] = dose if it differs, or a comment. The list is partial; rates above refer to the full screens.

Every second line gives: Resorufin fluor | TSHR ag | AID923 | A647 autofl | A488 fluor
Brc1ccc(-c2nn3c(-c4ccncc4)nnc3s2)o1
    i | 7.1% | 1.6% | 6.2e-09 | i
NC(=O)C1(N2CCCCC2)CCN(S(=O)(=O)c2cc(Cl)ccc2Cl)CC1
    / | 9.1% | -1.1% | / | /
COc1cccc(N2CCN(S(=O)(=O)c3ccc4nc(-c5ccccc5)[nH]c4c3)CC2)c1
    i | ? | 0.0% | 6.9e-09 | i
Cn1c(Cn2nnc3ccccc32)nnc1SCC(=O)N1CCc2ccccc21
    i | 2.1% | -0.7% | 7.9e-09 | i
CCOC(=O)c1c(C)[nH]c(C)c1C(=O)CSc1nnc(-c2ccncc2)n1C
    i | 13.1% | 0.7% | 3.24e-08 | i
COc1ccc(C(C)=O)cc1COC(=O)c1cccc(N(C)C)c1
    i | ? | -5.4% | 1.6e-08 | i
OC(CCCCN1CCCCC1)c1ccccc1 (stereo not drawn)
    i | 1.9% | 0.0% | 2.49e-08 | i
CCCCNc1nc(C)nc2c1nc(-c1ccccc1)n2CCCN(CC)CC
    / | ? | -2.4% | / | /
O=C(C1CCCN1S(=O)(=O)c1cccc2cccnc12)N1CCc2ccccc2C1 (stereo not drawn)
    / | ? | 2.2% | / | /
COC(=O)CC1Oc2ccc(C)cc2NC1=O (stereo not drawn)
    / | -1.0% | -2.6% | / | /
CCOC(=O)C1C(=O)NC(SCC(=O)OC)=C(C#N)C1c1ccccc1OCC (stereo not drawn)
    i | -15.2% | 1.1% | 9.6e-09 | i
CCOc1ccccc1NC(=O)CSc1nnc(Cn2c(=O)sc3ccccc32)n1C
    / | 4.1% | -2.3% | / | /
O=C(C1CCN(S(=O)(=O)N2CCOCC2)CC1)N1CCOCC1
    i | -6.4% | -2.3% | 6.9e-09 | i
CN(C)C(CN1C(=O)C2CC=CCC2C1=O)c1cn(C)c2ccccc12 (stereo not drawn)
    i | / | / | 3.8e-09 | i
COc1cc(OC)cc(C(=O)N2CCC(N3CCN(c4ccccc4)CC3)CC2)c1
    i | / | / | 1.97e-08 | i
CN1CCCC(OC(=O)CCCCC(=O)OC2CCCN(C)C2)C1 (stereo not drawn)
    i | 0.6% | -1.0% | 3.4e-09 | i
COc1ccc(C)cc1NC(=O)c1nc2nc(C)cc(C)n2n1
    i | 6.5% | 0.7% | 2.75e-08 | i
O=C(O)[C@H](Cc1cc(I)c(O)c(I)c1)C1CCCCC1
    i | 6.0%[11.4 µM] | -1.1%[11.5 µM] | 1.81e-08 | i
Cc1noc(C)c1C(=O)OCC(=O)c1c[nH]c2ccccc12
    i | -14.2% | -1.3% | 1e-09 | i
O=C(CN1C(=O)COc2ccccc21)c1ccc(Cl)cc1
    i | ? | 0.4% | 5.5e-09 | i
CCN1CCN(C(=O)N[C@H](C(=O)N[C@@H]2C(=O)N3[C@@H]2SC(C)(C)[C@@H]3C(=O)O)c2ccccc2)C(=O)C1=O
    i | 11.7%[25.6 µM] | 0.5%[25.7 µM] | 1e-09 | i
Cc1nc(CNS(=O)(=O)c2ccc3ccccc3c2)cs1
    / | 5.5% | -2.9% | / | /
CC1Cc2ccccc2N1C(=O)CN1C(=O)NC(C)(c2ccc3c(c2)OCCO3)C1=O (stereo not drawn)
    i | 13.1% | -2.2% | 1e-09 | i
CC(C)[C@H](NC(=O)OC(C)(C)C)[C@@H](O)CC(=O)C(C)(C)C
    / | -5.3%[11.4 µM] | -0.1%[11.5 µM] | / | /
O=C(O)CCCC(=O)Nc1nc2n(n1)C(c1ccc(F)cc1)CC(c1ccc(Cl)cc1)N2 (stereo not drawn)
    i | ? | 2.7% | 1e-09 | i
COc1cc2c(cc1NC(=O)CN1C(=O)NC3(CCc4ccccc43)C1=O)oc1ccccc12 (stereo not drawn)
    i | 0.4% | 0.6% | 3.2e-09 | i
COc1cccc(N2CCN(Cc3nc(N)nc(Nc4ccccc4OC)n3)CC2)c1
    i | 18.5% | 1.7% | 7.7e-09 | i
CCn1c(SCC(=O)Nc2ccc(NC(=O)c3cccs3)cc2)nnc1-c1cccnc1
    i | -3.4% | 0.8% | 1e-09 | i
CCCOc1ccc(C2NC(=O)NC2=O)cc1 (stereo not drawn)
    i | / | / | 5.1e-09 | i
O=C(O)Cn1nc(-c2ccc(F)cc2)oc1=O
    i | -0.5% | -1.7% | 4.14e-08 | i
CCOc1nc(SCCOc2ccc(C)cc2)nc(N(C)C)n1
    i | / | / | 2.2e-09 | i
Cc1nc(SCC(=O)OCc2ccccc2)c2c(=O)n(C)c(=O)n(C)c2n1
    / | -3.1% | -0.9% | / | /
O=C(CSc1nnc(-c2ccco2)n1Cc1ccccc1)c1ccc(F)cc1
    i | ? | 2.9% | 2.33e-08 | i
O=C(O)c1cccc(-n2cnnn2)c1
    / | -4.0% | -0.4% | / | /
O=C(C1CCCCC1)N1CCCC(c2nc3c(nnn3Cc3ccccc3)c(=O)[nH]2)C1 (stereo not drawn)
    i | ? | -0.2% | 3.6e-08 | i
CC1(C)Cc2c(C#N)c(SCC(=O)c3ccccc3)nc(N3CCCC3)c2CO1
    i | / | / | 4e-09 | i
COCCCNC(=O)Cn1nc(-c2ccc(C)cc2)ccc1=O
    i | -3.0% | 0.4% | 3.46e-08 | i
CC(=O)Nc1nonc1-c1nc2ccccc2n1Cc1nnc(C)o1
    / | 7.3% | 1.8% | / | /
CCN(CC)CCCNC(=O)c1nn(-c2ccccc2OC)c(=O)c2ccccc12
    i | -1.1%[11.4 µM] | -0.7% | 6e-09 | i
CCC(=O)Nc1cc2c(cc1C(=O)CC)OCCO2
    / | 13.1% | -0.5% | / | /
NS(=O)(=O)c1ccc(NC(=O)Nc2cccc3ccccc23)cc1
    i | -0.5%[11.4 µM] | 1.9%[11.5 µM] | 3.06e-08 | i
COc1ccc(-n2nc3c(c2NC(=O)c2cc4ccccc4oc2=O)CS(=O)(=O)C3)cc1
    i | -10.7% | -0.9% | 6.8e-09 | i
O=C(Cn1c(=O)n(CC2CCCO2)c(=O)c2ccccc21)c1ccccc1 (stereo not drawn)
    i | ? | -0.8% | 4.8e-09 | i
Cc1ccc(-c2nn(-c3ccccc3)cc2CN(Cc2ccccc2)C(=O)CCC(=O)O)o1
    i | 4.7% | 1.3% | 3.8e-09 | i
Cc1cccc(NC(=O)c2ccccc2NC(=O)C(C)(C)C)n1
    i | 10.6% | 0.3% | 3.88e-08 | i
CCN(CC)S(=O)(=O)c1ccc(NC(=O)C(OC)c2ccccc2)cc1 (stereo not drawn)
    i | -2.6% | 1.4% | 1.9e-09 | i
CC(=O)N1CCN(CC(O)COc2ccc(OCc3ccccc3)cc2)CC1 (stereo not drawn)
    i | 4.6% | -2.0% | 1.94e-08 | i
Cc1c(NC(=O)CSc2nc(-c3ccco3)cc(C(F)(F)F)n2)c(=O)n(-c2ccccc2)n1C
    i | 5.3% | 0.8% | 4.17e-08 | i
COCCCn1c2nc3ccccc3nc2c2c(=O)n(Cc3ccc(Cl)cc3)cnc21
    i | 11.4% | 0.8% | 2e-09 | i
CCOC(=O)Cc1csc(NC(=O)Nc2ccccc2)n1
    / | -1.3% | -0.8% | / | /
COc1ccc(S(=O)(=O)N(CCCN2CCCC2=O)Cc2cc3c(C)ccc(C)c3[nH]c2=O)cc1
    i | -2.7% | -2.2% | 3.4e-09 | i
Cc1nc2sc(C(c3cccs3)N3CCN(c4cccc(Cl)c4)CC3)c(O)n2n1 (stereo not drawn)
    / | ? | 3.9% | / | /
O=C(Nc1ccccc1O)c1ccc(Cl)cc1
    i | -6.4% | 0.2% | 1.8e-09 | i
CCN(CC(=O)NC(C)C)C(=O)CCNC(=O)c1ccc(Cl)cc1
    i | 17.4%[11.4 µM] | -0.8% | 5.7e-09 | i
CCN1C(=O)/C(=C2/SC(C)=C(C)N2CC)SC1=S
    i | -10.6% | 15.4% | 1e-09 | ?
Cc1ccc(S(=O)(=O)N(CC(=O)NCc2ccco2)Cc2ccccc2F)cc1
    i | 16.4% | -0.4% | 1.87e-08 | i
NS(=O)(=O)c1ccc(CCNC(=O)NC2(C(F)(F)F)Oc3ccccc3O2)cc1
    i | -4.2% | 0.4% | 1e-09 | i
O=C(COC(=O)C1CCCN1C(=O)c1cccs1)c1ccccc1 (stereo not drawn)
    i | 0.6% | -1.2% | 1.1e-08 | i
CCc1nnc(NC(=O)CSc2nnc(-c3c[nH]c4ccccc34)n2CC)s1
    i | -19.8% | -1.1% | 1.8e-09 | i
CCOC(=O)C1=C(C)NC(C)=C(C(=O)OCC)C1c1ccc(O)cc1
    / | ? | 3.3% | / | /

Structures shown so far that have a thiophene ring, fused or not, in the order listed:
Every second line gives: Resorufin fluor | TSHR ag | AID923 | A647 autofl | A488 fluor
CCn1c(SCC(=O)Nc2ccc(NC(=O)c3cccs3)cc2)nnc1-c1cccnc1
    i | -3.4% | 0.8% | 1e-09 | i
Cc1nc2sc(C(c3cccs3)N3CCN(c4cccc(Cl)c4)CC3)c(O)n2n1 (stereo not drawn)
    / | ? | 3.9% | / | /
O=C(COC(=O)C1CCCN1C(=O)c1cccs1)c1ccccc1 (stereo not drawn)
    i | 0.6% | -1.2% | 1.1e-08 | i

(further entries)
Every second line gives: Resorufin fluor | TSHR ag | AID923 | A647 autofl | A488 fluor
COc1cc(C(=S)N2CCC(C(N)=O)CC2)ccc1O
    i | -1.3% | 0.5% | 1e-09 | i
COc1ccccc1C(=O)N1CCN=C1c1ccccc1
    i | 2.7% | 0.2% | 3.6e-08 | i
Cc1nc(SCC(=O)c2c[nH]c3ccccc23)n[nH]1
    i | -15.5% | -1.1% | 2.05e-08 | i
Cc1c(N2CCCC2)cc2c(c1NC(=O)c1ccccc1Cl)C(C)(C)CC2(C)C
    i | 8.3%[11.4 µM] | 0.6%[11.5 µM] | 7e-09 | i
CCCS(=O)(=O)N1CCC(C(=O)NCCCOCC)CC1
    i | 22.7% | -1.6% | 1.4e-09 | i
Cc1ccc2nc(C3CCN(CC(=O)Nc4ccc5c(c4)OCCO5)CC3)[nH]c2c1
    i | 7.5% | -0.1% | 1e-09 | i
COC(=O)c1ccc(CSc2nnc(-c3ccncc3)o2)o1
    i | 0.3% | -1.5% | 1.05e-08 | i
O=C(O)c1ccc2c(c1)CC(c1ccccc1)OC2=O (stereo not drawn)
    i | 7.7% | -0.1% | 1e-09 | i
CCOC(=O)C1=C(c2ccccc2)N(C)C(=O)NC1c1ccc(O)c(OC)c1 (stereo not drawn)
    i | 12.1% | 0.4% | 3.7e-09 | i
CCn1c(SCc2nc(CC(=O)Nc3ccccc3OC)no2)nnc1-c1cccs1
    i | ? | 0.9% | 1.95e-08 | i
CCc1c(C)nc(N)n2c(SCC(=O)N3CCN(c4ccccc4OC)CC3)nnc12
    i | -1.9% | 0.4% | 1.8e-09 | i
CC1=[N+]([O-])C(N2CCOCC2)C(O)(c2ccccc2)C1 (stereo not drawn)
    i | 0.2% | 1.7% | 4.46e-08 | i
COc1cc2c(cc1OC)CN(C(=O)CSc1nc(N)c(C#N)cc1C#N)CC2
    i | -2.0% | 4.6% | 1.5e-09 | i
CCOc1nc(-c2ccc(C)cc2)ccc1-c1noc(COC)n1
    i | 7.2% | 0.5% | 1.7e-09 | i
O=C(O)CN1C(=O)CSc2ccccc21
    i | 0.8% | -0.2% | 2.29e-08 | i
COC(=O)C(Cc1cnc[nH]1)NC(=O)C1CCC(=O)N1 (stereo not drawn)
    i | -0.6% | -0.8% | 7.2e-09 | i
COc1ccccc1OCC(=O)N(Cc1nc(-c2ccc(Cl)cc2)no1)C(C)C
    / | ? | -1.9% | / | /
CC(C)NS(=O)(=O)c1ccc(OCC(=O)Nc2ccc3c(c2)OCCO3)cc1
    i | 5.3% | 0.6% | 3.84e-08 | i
Cc1ccc(C(=O)Nc2ccccc2N2CCN(C(=O)C(C)C)CC2)cc1
    i | ? | 0.0% | 1.35e-08 | i
Cc1nc2ccccc2c(=O)n1/N=C/c1ccncc1
    / | -6.8% | 2.4% | / | /
FC(F)(F)c1cccc(N2Cc3ccccc3C2)c1
    i | 15.0% | 1.0% | 9.2e-09 | i
